Screening data deposited in PubChem BioAssay by National Center for Advancing Translational Sciences (NCATS).
PINK1 modulator = modulators of PINK1 expression | PINK1 immunofluorescence, high-content cytometry, 24 h | Potency, µM (titrated, usually from 76.6 µM), inactives show top-dose activation (PINK1 increase), hits mostly activators | actives 0.2% (n = 410,000); active = well fitted activation curve with a large enough effect; inconclusive = small, poorly fitted or top-dose-only effect; inactive = flat fitted curve, though single readings scatter; cell line not stated here;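 note: % of control where 0% means no effect; nearly all actives have a fitted effect of over 65% in size; a mitochondrial uncoupler was the plate control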
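Fluorescence from anti-PINK1 antibody, together with nuclear and cell stains, was scanned on a laser-scanning cytometer. Before staining, stable-line cells were incubated 24 hours with compounds at 5 concentrations; primary antibody 12 h at 10 degrees C.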
ClpP mod = qHTS Assay for Activators of ClpP; Potency, µM (top dose mostly 57.5 µM), inactives show top-dose activity change, negative = active; actives 1.9% (n = 340,000); AID 651965, 2013; ATP-dependent Clp protease proteolytic subunit (Bacillus subtilis (strain 168)), P80244; purified B. subtilis ClpP, FRET peptide cleavage, 20 min; active = well fitted falling curve with a large enough effect; inconclusive = small, poorly fitted or top-dose-only effect; inactive = no such curve, though single readings can be large or run the other way; note: the source files actives as falling curves though it sought activators and does not explain the sign; nearly all actives have a fitted effect of over 65% in size; many hits overshoot -100%
Target sequence (P80244 whole entry, looked up): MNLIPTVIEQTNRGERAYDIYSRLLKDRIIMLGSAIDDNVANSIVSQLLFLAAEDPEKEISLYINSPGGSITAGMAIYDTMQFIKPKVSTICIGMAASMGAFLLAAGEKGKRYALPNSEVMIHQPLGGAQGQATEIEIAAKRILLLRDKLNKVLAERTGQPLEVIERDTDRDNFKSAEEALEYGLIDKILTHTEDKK
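ClpP 10 microg/mL final, pH 8 Tris/KCl buffer with BSA, glycerol, Tween-20; compound pinned in; FRET-FV substrate; RT 20 min; Ex320/Em430; ΔFRET vs ADEP 5.8 microM, DMSO, no enzyme.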
Active calls of the source: *; ? = inconclusive. Potency is the fitted concentration of half-maximal effect. Only part of the results is shown; rates above refer to the full screens.

A first look:
SMILES	PINK1 modulator	ClpP mod
O=C(CC(O)CCc1ccccc1)c1ccc(O)cc1 (stereo unspecified)	-0.2%	-1.9%
CC[C@@H]1CN(C)[C@H]2Cc3c([nH]c4ccccc34)C(=O)C[C@@H]1[C@@H]2C(=O)OC	0.5%	-18%
COc1c2c(cc3oc(=O)c4c5ccc(O)cc5oc4c13)OC(C)(C)CC2	3.3%	4.8%
C[C@@H]1CN([C@H](C)CO)S(=O)(=O)c2ccc(-c3ccc(C#N)cc3)cc2O[C@H]1CN(C)C(=O)Nc1cc(F)ccc1F	1.6%	-5.1%
Cn1c(=O)c2[nH]c(=O)[nH]c2n(C)c1=O	1.0%	0.0%
OCC1OCOC2C(CO)OCOC12 (stereo unspecified)	1.7%	1.6%
Cc1ccc(NC(=O)c2nc[nH]c2C(=O)Nc2ccccc2F)cc1	?	0.3%
CSC[C@H]1CN(Cc2ccccc2)C(=O)[C@@H]1CC(=O)Nc1ccccc1	0.8%	1.0%
C[C@H](CO)N1C[C@H](C)[C@@H](CN(C)Cc2cccc(F)c2)Oc2cc(-c3cccc(C#N)c3)ccc2S1(=O)=O	2.1%	1.1%
C[C@H]1CN([C@@H](C)CO)C(=O)c2cc(Br)cnc2O[C@H]1CN(C)S(=O)(=O)c1ccccc1F	-0.4%	0.1%
C[C@@H]1CN([C@@H](C)CO)C(=O)c2cc(Br)cnc2O[C@@H]1CN(C)S(C)(=O)=O	0.9%	1.5%
COCOc1ccc(/C=C/C(=O)c2c(OCOC)cc(OCOC)c(CC=C(C)C)c2O)cc1OCOC	1.5%	0.6%
CC(=O)N1CCN(c2cc(-c3ccccc3)nc3cc(-c4cccc(Cl)c4)nn23)CC1	1.3%	?
CCCCCCN1C[C@H](O)[C@@H](n2cc(COC(=O)c3ccccc3)nn2)C[C@@H]1c1ccccc1	4.7%	1.0%
COc1ccccc1S(=O)(=O)N(C)C[C@H]1OCc2cn(nn2)CCCC(=O)N([C@H](C)CO)C[C@@H]1C	-0.7%	1.2%
CC1Oc2cc3oc4c(O)c5c(cc4c(=O)c3c(O)c2C1(C)C)C=CC(C)(C)O5 (stereo unspecified)	9.4%	0.7%

The list itself, previewed entries included:
SMILES	PINK1 modulator	ClpP mod
O=C(CC(O)CCc1ccccc1)c1ccc(O)cc1 (stereo unspecified)	-0.2%	-1.9%
CC[C@@H]1CN(C)[C@H]2Cc3c([nH]c4ccccc34)C(=O)C[C@@H]1[C@@H]2C(=O)OC	0.5%	-18%
COc1c2c(cc3oc(=O)c4c5ccc(O)cc5oc4c13)OC(C)(C)CC2	3.3%	4.8%
C[C@@H]1CN([C@H](C)CO)S(=O)(=O)c2ccc(-c3ccc(C#N)cc3)cc2O[C@H]1CN(C)C(=O)Nc1cc(F)ccc1F	1.6%	-5.1%
Cn1c(=O)c2[nH]c(=O)[nH]c2n(C)c1=O	1.0%	0.0%
OCC1OCOC2C(CO)OCOC12 (stereo unspecified)	1.7%	1.6%
Cc1ccc(NC(=O)c2nc[nH]c2C(=O)Nc2ccccc2F)cc1	?	0.3%
CSC[C@H]1CN(Cc2ccccc2)C(=O)[C@@H]1CC(=O)Nc1ccccc1	0.8%	1.0%
C[C@H](CO)N1C[C@H](C)[C@@H](CN(C)Cc2cccc(F)c2)Oc2cc(-c3cccc(C#N)c3)ccc2S1(=O)=O	2.1%	1.1%
C[C@H]1CN([C@@H](C)CO)C(=O)c2cc(Br)cnc2O[C@H]1CN(C)S(=O)(=O)c1ccccc1F	-0.4%	0.1%
C[C@@H]1CN([C@@H](C)CO)C(=O)c2cc(Br)cnc2O[C@@H]1CN(C)S(C)(=O)=O	0.9%	1.5%
COCOc1ccc(/C=C/C(=O)c2c(OCOC)cc(OCOC)c(CC=C(C)C)c2O)cc1OCOC	1.5%	0.6%
CC(=O)N1CCN(c2cc(-c3ccccc3)nc3cc(-c4cccc(Cl)c4)nn23)CC1	1.3%	?
CCCCCCN1C[C@H](O)[C@@H](n2cc(COC(=O)c3ccccc3)nn2)C[C@@H]1c1ccccc1	4.7%	1.0%
COc1ccccc1S(=O)(=O)N(C)C[C@H]1OCc2cn(nn2)CCCC(=O)N([C@H](C)CO)C[C@@H]1C	-0.7%	1.2%
CC1Oc2cc3oc4c(O)c5c(cc4c(=O)c3c(O)c2C1(C)C)C=CC(C)(C)O5 (stereo unspecified)	9.4%	0.7%
C[C@@H]1CN([C@@H](C)CO)C(=O)CCCn2cc(nn2)CO[C@H]1CN(C)C(=O)CCCN(C)C	0.3%	0.3%
CC1NC(=O)c2cccnc2-n2c1nc1ccccc1c2=O (stereo unspecified)	2.3%	0.6%
CCN(CC)C(=O)C1=C(C)N(Cc2ccc(F)cc2)C(=O)C(CC(=O)NC2CCCCC2)C1 (stereo unspecified)	0.0%	0.3%
COCC(=O)Nc1ccc2c(c1)[C@@H]1C[C@H](CC(=O)OC)O[C@H](CO)[C@@H]1O2	-0.6%	-0.8%
C[C@@H]1CCCCO[C@H](CN(C)C(=O)Nc2ccc3c(c2)OCO3)[C@@H](C)CN([C@H](C)CO)C(=O)c2cc(NS(=O)(=O)c3ccc(F)cc3)ccc2O1	0.1%	-0.7%
C[C@@H]1CN([C@@H](C)CO)C(=O)c2cc(Br)cnc2O[C@H]1CN(C)C(=O)c1ccncc1	1.3%	-0.4%
C=C(C)c1cc2c(ccc3ccc(=O)oc32)o1	2.7%	-11%
CCCCCCN1C[C@H](n2cc(C3CC3)nn2)[C@@H](O)C[C@@H]1c1ccc(Cl)cc1	4.9%	-0.3%
C[C@@H]1CN([C@@H](C)CO)C(=O)CCCn2nncc2CO[C@H]1CN(C)Cc1cccc(C(F)(F)F)c1	2.4%	1.1%

Next part
SMILES	PINK1 modulator	ClpP mod
O=C(OCc1cn([C@H]2C[C@H](c3ccc(Cl)cc3)N(Cc3cccs3)C[C@@H]2O)nn1)c1ccccc1	1.5%	-3.1%
CCC1NC(=O)c2cc3ccccc3cc2-n2c1nc1cc(F)ccc1c2=O (stereo unspecified)	6.9%	-4.0%
O=C(/C=C/CCc1ccc2c(c1)OCO2)N1CCCCC1	0.0%	1.3%
Nc1ccn([C@@H]2O[C@H](CNCc3ccc(Oc4cc(-n5cccn5)ncn4)cc3)[C@@H](O)[C@H]2O)c(=O)n1	1.9%	-1.1%
OCC(O)C1OC(c2ccccc2)OC(CO)C1O (stereo unspecified)	1.7%	0.6%
N#Cc1ccc(S(=O)(=O)NC[C@H]2O[C@@H](n3ccc(N)nc3=O)[C@H](O)[C@@H]2O)cc1	0.5%	-1.3%
C[C@H]1CN([C@@H](C)CO)C(=O)CCCn2cc(nn2)CO[C@@H]1CN(C)S(=O)(=O)c1ccc(Cl)cc1	1.2%	-0.9%
CCC[C@H]1CN(Cc2cccnc2)C(=O)[C@@H]1CC(=O)Nc1ccc(Br)cc1	1.0%	2.4%
Cc1cccc(NC(=O)c2nc[nH]c2C(=O)N[C@H](C)CO)c1	0.3%	2.1%
COCOCCn1cc(CN2CCS(=O)(=O)N(Cc3ccc(-c4ccc(OC)nc4)cc3)C(C(C)C)C2=O)nn1 (stereo unspecified)	1.0%	-1.9%
CCN1C(=O)[C@H]2[C@@H](c3ccc(C)cc3)N[C@]3(CCCN(Cc4cccn4C)C3=O)[C@H]2C1=O	2.5%	-3.2%
C=C1C(=O)OC2C1CCC(C)=C1C(=O)C3OC3(C)C12 (stereo unspecified)	0.9%	0.2%
O=C(OCc1cn([C@H]2C[C@H](c3ccccc3)N(CC3CCCCC3)C[C@@H]2O)nn1)c1ccccc1	13%	-1.0%
COc1ccc(S(=O)(=O)Nc2ccc3c(c2)C(=O)N([C@@H](C)CO)C[C@@H](C)[C@H](CN(C)S(=O)(=O)c2ccc(F)cc2)OCCCC[C@H](C)O3)cc1	0.1%	-0.6%
CC1(C)C2CC[C@]3(C)C(CC=C4[C@@H]5C[C@@](C)(CO)[C@@H](O)C[C@]5(C(=O)O)CC[C@]43C)[C@@]2(C)CC[C@@H]1O (stereo partly specified)	-0.3%	-12%
NC(=O)CC(NC(=O)c1ccccc1)C(=O)O (stereo unspecified)	1.4%	0.3%
Cc1cc(=O)oc2c(CN3CCOCC3)c(O)ccc12	0.1%	3.8%
C[C@H]1CN([C@@H](C)CO)C(=O)c2cc(Br)cnc2O[C@H]1CN(C)C(=O)c1cnccn1	-0.1%	-0.7%
CC1=C(C(=O)N(C)C)CC(CC(=O)NCc2ccco2)C(=O)N1CCC1=CCCCC1 (stereo unspecified)	-0.5%	2.7%
C[C@H](CO)N1C[C@H](C)[C@H](CN(C)S(C)(=O)=O)OCc2cnnn2CCCC1=O	0.9%	1.4%
Cc1cn([C@H]2C[C@H](O)[C@@H](CNCc3ccccc3OCCCN3CCOCC3)O2)c(=O)[nH]c1=O	0.1%	0.4%
CCC[C@H]1CN(c2ccccc2)C(=O)[C@@H]1CC(=O)NC	-0.5%	1.3%
COC(=O)C[C@H]1C[C@H]2c3cc(NC(=O)Nc4ccc(C(F)(F)F)cc4)ccc3O[C@H]2[C@@H](CO)O1	5.1%	1.2%
CC1(C)C2CC[C@]3(C)C(CC=C4[C@@H]5C[C@](C)(CO)CC[C@]5(C(=O)O)CC[C@]43C)[C@@]2(C)CC[C@@H]1O (stereo partly specified)	-1.3%	-1.4%
O=C1C(O)=C(O)C(=O)c2ccccc21	?	4.7%

The listing continues.
SMILES	PINK1 modulator	ClpP mod
C[C@H]1CN([C@@H](C)CO)C(=O)CCCn2nncc2CO[C@H]1CN(C)C(=O)Cc1ccccc1	-0.5%	-2.3%
O=C(c1cc2nc(-c3ccccc3)cc(C(F)(F)F)n2n1)N1CCCC1	1.3%	-2.7%
COc1ccc(C(=O)O)c(O)c1	0.9%	-21%
CN(C)c1ccc(/C=C/CNC[C@H]2O[C@@H](n3ccc(N)nc3=O)[C@H](O)[C@@H]2O)cc1	0.8%	4.4%
CCn1cc(C2C3=C(CC(C)(C)CC3=O)N(c3ccc(C)cc3)C3=C2C(=O)CC(C)(C)C3)c(C)n1	2.5%	-4.5%
CCN(CC)C(=O)C1=C(C)N(CCCN2CCCC2=O)C(=O)C(CC(=O)NC(c2ccccc2)c2ccccc2)C1 (stereo unspecified)	0.6%	-0.9%
COc1ccc(C2COc3cc(O)ccc3C2)c(OC)c1O (stereo unspecified)	4.0%	-3.7%
OCC1OC(O)CC(O)C1O (stereo unspecified)	-0.6%	3.0%
Cn1cc(C(=O)NCCc2ccccc2)c(=O)c2cc(S(=O)(=O)N3CCOCC3)ccc21	0.0%	-0.4%
COc1ccccc1CN(C)C[C@@H]1OCc2cnnn2CCCC(=O)N([C@@H](C)CO)C[C@H]1C	-0.1%	2.1%
C[C@H](CO)N1C[C@H](C)[C@@H](CN(C)C(=O)NC2CCCCC2)Oc2ncc(Br)cc2C1=O	1.3%	1.5%
CCCCN1C[C@H](C)[C@@H](CC(=O)NC)C1=O	1.4%	-3.0%
CCC(C)C(CO)NCCCn1cnc2c(SC)ncnc21 (stereo unspecified)	-0.8%	-0.8%
CN(Cc1ccccc1)C(=O)c1[nH]cnc1C(=O)Nc1ccc(Br)cc1F	6.6%	0.9%
CC(C)(O)CCc1c(-c2ccc(O)cc2O)oc2c3c(cc(O)c2c1=O)OC(C)(C)C=C3	1.2%	-0.7%
Cc1cc(C)c2c(=O)n3c(nc2c1)C(CC(C)C)NC(=O)c1cc2ccccc2cc1-3 (stereo unspecified)	6.6%	-3.5%
CCCn1c(C)cc(C(=O)CN2C(=O)c3ccccc3C2=O)c1C	2.3%	-0.6%
O=C(CN1C(=O)NC2NC(=O)NC21)NC1CCCCC1 (stereo unspecified)	-0.7%	0.3%
COc1ccc(-n2sc3ccccc3c2=O)cc1	-0.7%	0.4%
CC(C)(O)[C@@H]1[C@@H]2C[C@@]3(CC[C@]4(C)C(CCC5[C@@]6(C)CC[C@H](O)C(C)(C)C6CC[C@]54C)[C@@H]13)C(=O)O2 (stereo partly specified)	0.0%	-2.5%
O=C(C[C@H]1C(=O)N(CCc2ccccc2)C[C@@H]1Cc1ccccc1)Nc1ccc(Br)cc1	2.9%	0.4%
O=C(c1ccco1)N1CCN(C2CN(Cc3ccc([N+](=O)[O-])cc3)S(=O)(=O)C2)CC1 (stereo unspecified)	0.4%	0.9%
CCCCCCN1CCN(C2CN(Cc3ccc([N+](=O)[O-])cc3)S(=O)(=O)C2)CC1 (stereo unspecified)	1.7%	-0.3%
C[C@H](NC(=O)c1ncn2c1c(=O)[nH]c1ccccc12)c1ccccc1	0.3%	3.7%
O=c1c(Oc2ccccc2)coc2cc(O)cc(O)c12	0.8%	-0.6%
COC(=O)c1c(C)cc(O)c(C=O)c1O	1.0%	-1.0%
